VDR inh – Inhibitors of the vitamin D receptor (VDR): qHTS; Vitamin D3 receptor (Homo sapiens), P11473; VDR-SRC2-3 peptide fluorescence polarization, 2 h; Potency, µM, for inactives: max response, negative = inhibition, actives largely listed as inhibitors; 400,000 compounds, 0.93% hits; active means well fitted inhibition curve with a large enough effect; inconclusive means small, poorly fitted or top-dose-only effect, or another doubt; inactive means no such curve, though single readings can be large or run the other way; further: series mostly up to about 120 µM
Target sequence (P11473 whole entry, looked up): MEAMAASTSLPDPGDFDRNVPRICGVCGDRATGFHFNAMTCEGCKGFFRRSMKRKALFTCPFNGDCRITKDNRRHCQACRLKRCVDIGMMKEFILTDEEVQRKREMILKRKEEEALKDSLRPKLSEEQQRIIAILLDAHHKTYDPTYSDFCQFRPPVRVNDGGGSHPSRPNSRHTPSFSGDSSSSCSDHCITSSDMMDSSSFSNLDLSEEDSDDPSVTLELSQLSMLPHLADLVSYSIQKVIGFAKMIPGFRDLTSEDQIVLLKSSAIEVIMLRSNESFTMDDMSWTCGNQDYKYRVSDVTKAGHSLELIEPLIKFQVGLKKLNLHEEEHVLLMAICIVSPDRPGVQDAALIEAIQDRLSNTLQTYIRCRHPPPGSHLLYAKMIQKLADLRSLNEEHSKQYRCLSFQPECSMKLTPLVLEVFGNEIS
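Fluorescence polarization assay measuring small-molecule disruption of VDR binding to the coregulator peptide SRC2-3. Compounds were pin-transferred (23 nl) into the reagent mix and incubated 2 h at room temperature before reading.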
* = called active by the depositor; ? = inconclusive; & = joins results of further samples; [ ] = another dose, or the depositor's remark. On the % scale 0 is the no-effect control and ±100 the full control effect; potency means the concentration at half of the fitted maximal effect.

VDR inh	Molecule
-15%	CCNc1ccc(C(=O)Nc2ccc3nc(C)sc3c2)cc1[N+](=O)[O-]
11%	COc1ccccc1CN(C)C(=O)CN1CCN(CC(=O)Nc2ccccc2Cl)CC1
-10%	COc1ccc(NS(=O)(=O)c2ccc3c(c2)CCO3)cc1
-10%	Cn1cccc1C(=O)N1CCN(c2cccc(C(F)(F)F)c2)CC1
22%	O=C(NCCN1CCOCC1)c1csc2c1CCCC2
-6%	O=C(NC1CCCN(Cc2ccc(Cl)cc2)C1)c1ccoc1 (centres undefined)
?	COc1ccc(-c2c(C)c3ccc(O)cc3oc2=O)cc1OC
-4%	Cc1nnc(NC(=O)CSc2nccn2-c2ccc(Cl)cc2)s1
4%	C/C(CC(=O)Nc1cc(C)ccn1)=N\NC(=O)c1ccc(C)cc1
-10%	CC(C)NS(=O)(=O)c1ccc(OCC(=O)NCCC2=CCCCC2)cc1

Molecules listed so far that have an aryl methoxy group (3):
VDR inh	Molecule
11%	COc1ccccc1CN(C)C(=O)CN1CCN(CC(=O)Nc2ccccc2Cl)CC1
-10%	COc1ccc(NS(=O)(=O)c2ccc3c(c2)CCO3)cc1
?	COc1ccc(-c2c(C)c3ccc(O)cc3oc2=O)cc1OC

Next compounds follow:
VDR inh	Molecule
-18%&-11%	CC(=O)O[C@]1(C(C)=O)CC[C@H]2[C@@H]3C[C@H](C)C4=CC(=O)CC[C@]4(C)[C@H]3CC[C@@]21C
-24%	CCOc1ccc2nc(N3CCCC(C(=O)NCc4ccc(OC)cc4)C3)sc2c1 (centres undefined)
8%	CCc1nn(C(C)C(=O)N2CCc3ccccc3C2)c(=O)c2cc3occc3n12 (centres undefined)
-3%	CN(CC(=O)Nc1ccccc1C(F)(F)F)C(=O)CSCc1ccccc1
-1%	CCOc1ccccc1/C=N/Nc1ccc(Cl)nn1
4%	CCOC(=O)Cc1nnc(NC(=O)CSc2ccc(C)cc2)s1
-2%	CCOc1ccc(CCNC(=O)c2cnc3sc(N4CCCCC4)nn3c2=O)cc1
-3%	O=C(COC(=O)c1ccccc1)NC12CC3CC(CC(C3)C1)C2
-1%	CN(CC(=O)Nc1ccc(N2CCOCC2)cc1)CC(=O)Nc1ccc(C(F)(F)F)cc1
-6%	O=C(NCCc1ccc(Cl)cc1)C1CCCO1 (centres undefined)
-19%	COc1ccc(N2CCN(Cc3cc4c(cc3Br)OCCO4)CC2)cc1
-2%	CCCCC(=O)Nc1cc(-c2nc3cccnc3s2)ccc1C
2%	COc1ccc(NC(=O)CN(C)S(=O)(=O)c2ccc(Cl)cc2)c([N+](=O)[O-])c1
-14%	CC(=O)c1c(-c2ccccc2)[nH]c2ccccc12
-19%	CC(=O)c1ccc(S(=O)(=O)Nc2ccc(-c3cn4c(n3)SCC4)cc2)cc1
5%	CCNC(=O)C1CCCN(c2nc(C)cc(C)n2)C1 (centres undefined)
-17%	COc1c(CO)cc(CO)cc(CO)c1=O
0%	NC(N)=NCCC[C@H](N)C(=O)N1CCC[C@H]1C(=O)N1CCC[C@H]1C(=O)NCC(=O)N[C@@H](Cc1ccccc1)C(=O)N[C@@H](CO)C(=O)N1CCC[C@H]1C(=O)N[C@@H](Cc1ccccc1)C(=O)O
8%	CN(C(=O)CC(=O)Nc1ccc(Cl)c(Cl)c1)c1ccccc1
-10%	Cc1[nH]c(=O)[nH]c(=O)c1S(=O)(=O)N1CCCC(C(=O)NCc2ccco2)C1 (centres undefined)
-13%	COc1ccc(-n2c(C)nn(CC3CC3)c2=O)cc1
45µM*	N[C@@H](Cc1cc(-c2ccc(Cl)cc2Cl)cc(CP(=O)(O)O)c1O)C(=O)O
9%	O=C(Nc1ccc(N2CCOCC2)cc1)Nc1ccc2nsnc2c1
10%	COc1ccc(NC(=O)CSc2nnc(-c3ccccc3)n2N)cc1
16%	CCn1ncc(C2=NOC(C(=O)NCc3ccc(OC)cc3)C2)c1C (centres undefined)
-11%	O=C(CN1C(=O)NC2(CCCCC2)C1=O)N1CCN(C(=O)c2cccs2)CC1
-5%	COC(=O)C1(C)NC(c2ccc(C)cc2)C2C(=O)N(c3ccc(F)cc3)C(=O)C21 (centres undefined)
-5%	CCCCn1nnnc1NCc1cccc(OC)c1OC
6%	O=C(c1cc(COc2ccc(F)cc2Cl)on1)N(Cc1ccncc1)CC1CCCO1 (centres undefined)
10%	CC(=O)N1CCCc2ccc(NS(=O)(=O)c3cccc(Cl)c3)cc21
35%[activator]	C[C@H](N)c1nnc(SCC(N)=O)o1
-6%	N=C1C(c2nc3ccccc3s2)=C(O)CN1NC(=O)c1ccc([N+](=O)[O-])cc1
12%	CCCCN(CC)S(=O)(=O)c1c(C)[nH]c(=O)[nH]c1=O
-11%	CCOc1ccc(S(=O)(=O)N2CCC(C(=O)NCCc3ccc(S(N)(=O)=O)cc3)CC2)cc1
-6%	Cc1cc(NC(=O)CSc2nnc(CNC(=O)c3c(F)cccc3F)o2)no1
3%	COc1cccc(NC(=O)CSc2cccc[n+]2[O-])c1
-14%	O=C(COc1ccc(Cl)c2cccnc12)N1CCOCC1
-1%	Cc1nnc2ccc(-c3ccc(NS(C)(=O)=O)cc3)nn12
-1%	Cc1cc(=O)[nH]c(SCC(=O)c2ccc(C)c(C)c2)n1
-13%	CC(Sc1ncc(C#N)c(N)n1)C(=O)Nc1ccccc1 (centres undefined)
-3%	C=CCOc1ccc(NC(=O)C(=O)NCCCn2ccnc2)cc1
0%	COc1ccccc1N1CCN(C(=O)COc2ccccc2C#N)CC1
-11%	C=CCn1c(SCC(=O)N(C)C2CCS(=O)(=O)C2)nnc1-c1ccncc1 (centres undefined)
-29%	Cc1ccc(OCC(=O)N2N=C(c3ccncc3)CC2(O)C(F)(F)F)cc1C (centres undefined)
-15%	CCOC(=O)C1(Cc2ccc(OC)cc2)CCN(C(=O)c2cc(C)on2)CC1
3%	Cc1ccc(C)c(CN2C(=O)C3(c4ccccc42)N(c2ccc(Cl)cc2)C(=O)CS3(=O)=O)c1 (centres undefined)
27%	O=C(Cn1nc(C(F)F)cc1C(F)F)NNC(=S)Nc1ccc(Cl)cc1
?	CC(SC1=Nc2ccccc2C2CC=NN12)C(=O)NC1(C#N)CCCCC1 (centres undefined)
-8%	CCOC(=O)c1nc2sc(C)c(C)c2c(=O)[nH]1
3%	CCCc1cc(C(=O)Nc2ccccc2SC)no1

Following part.
VDR inh	Molecule
-12%	O=C(CSc1ccc(-c2ccco2)nn1)NCc1ccccc1
-5%	O=C1CN(C(=O)COC(=O)c2cccc(S(=O)(=O)NCc3ccccc3)c2)c2ccccc2N1
-10%	CC1CCCCN1S(=O)(=O)c1ccc(C(=O)Nc2nnc(-c3ccccn3)o2)cc1 (centres undefined)
-1%	O=C(Nc1ccc(O)c(-c2nc3ccccc3o2)c1)C1(c2ccccc2)CCCC1
13%	O=C1CCC[C@@H]2C[C@@]3(C[C@@H]4CCN1[C@H]24)Nc1cc(Cl)ccc1NC3=NC1CCCCC1
-15%	CCOc1ccc(C2=[N+]([O-])C(C)(C)N(O)C2(C)C)cc1
3%	Cc1ccc(NC(=O)C2CC2)cc1S(=O)(=O)N1CCOCC1
-12%	CC(C)CC1(C)NC(=O)N(Cc2cc([N+](=O)[O-])cc3c2OCOC3)C1=O (centres undefined)
-2%	COc1cc(C2C(C(=O)OCC(C)C)=C(C)N=C3SCCC(=O)N32)ccc1OCc1ccccc1 (centres undefined)
-13%	COc1ccc(-c2cccc(-c3nc4ccc(Cl)cn4c3NC3CCCCC3)c2)cc1

Gathered by group, the compounds so far with two or more sulfur atoms (5)
VDR inh	Molecule
-4%	Cc1nnc(NC(=O)CSc2nccn2-c2ccc(Cl)cc2)s1
4%	CCOC(=O)Cc1nnc(NC(=O)CSc2ccc(C)cc2)s1
-19%	CC(=O)c1ccc(S(=O)(=O)Nc2ccc(-c3cn4c(n3)SCC4)cc2)cc1
-11%	CCOc1ccc(S(=O)(=O)N2CCC(C(=O)NCCc3ccc(S(N)(=O)=O)cc3)CC2)cc1
-11%	C=CCn1c(SCC(=O)N(C)C2CCS(=O)(=O)C2)nnc1-c1ccncc1 (centres undefined)

Further structures
VDR inh	Molecule
-5%	COc1ccc(-n2nnc3c(SCC(=O)N4CCCc5ccccc54)ncnc32)cc1
4%	CC1=NN(c2ccc(C(F)(F)F)cn2)C(=O)C1
-1%	C=CCNC(=O)c1cc2cccc(OC)c2oc1=O
-13%	NC(=O)c1ccc(N2CCOCC2)nc1
0%	COc1cccc(Oc2c(C)oc3c(CN4CCCC4)c(O)ccc3c2=O)c1
6%	CC1CC(C)CN(C(=O)c2cc(S(=O)(=O)N3CCCCC3)ccc2Cl)C1 (centres undefined)
-6%	Cc1cccc(OCc2ccc(-c3nc(C#N)c(NCCN(C)C)o3)o2)c1
-4%	CC(C)CNC(=O)CC(c1ccccc1)c1ccccc1
-14%	COc1cc(C(=O)OCC(=O)NC2CCS(=O)(=O)C2)ccc1OCc1c(C)noc1C (centres undefined)
-10%	COc1ccc(NC(=O)COc2nsnc2N2CCCCC2)cc1
-11%	Cc1cnc(NC(=O)C(C)N2CCN(C)CC2)s1 (centres undefined)
10%	COc1ccc(-c2cn3nc(N4CCCC(C(=O)Nc5cc(Cl)ccc5OC)C4)sc3n2)cc1 (centres undefined)
-18%	COc1ccccc1NC(=O)c1ccc(NC(=O)CSc2n[nH]c(N)n2)cc1
-3%	CC(=O)N1CC=CC1(C)C(=O)O (centres undefined)
-3%	COc1cccc(C2(O)CCN(C(=O)C3CCC3)CC2)c1
-22%	CC(NC(=O)C1CCN(C(=O)c2cccs2)CC1)c1ccc(S(N)(=O)=O)cc1 (centres undefined)
22%	Cc1ccc(C(=O)NCC(=O)OCC(=O)NC2CCCCCCC2)cc1
-24%	Cc1cc(C)n(CCC(=O)Nc2cccc(F)c2)n1
0%	Cc1ccc(CN(Cc2ccco2)C(=O)c2ccco2)cc1
0%	CCC(c1nnc(SCC(=O)Nc2cccc(S(N)(=O)=O)c2)n1-c1ccc(OC)cc1)N(C)C (centres undefined)
1%	CCCCc1n[nH]c(=S)n1Cc1ccc(C)cc1
10%	CCCc1nc2ccccc2c(C(=O)N(CC)CC(=O)NCc2cccs2)c1CC
?	C[C@@H]1C[C@H]2[C@@H]3C[C@H](F)C4=CC(=O)C=C[C@]4(C)[C@@]3(F)[C@@H](O)C[C@]2(C)[C@@]1(O)C(=O)CO
-6%	COc1ccc(C2C(C#N)=C(N)Oc3cc(O)ccc32)cc1OC (centres undefined)
17%	Cc1ccc(C(=O)Nc2nc(-c3ccc(F)cc3)cs2)o1
2%	COc1ccc(-n2ncc3c(=O)n(CC(=O)OCc4ccccc4)cnc32)cc1
-1%	CCCCN=C1NN=C(c2ccc3c(c2)OCCO3)CS1
-4%	COc1ccc(CC(=O)Nc2nnc(SCc3ccccc3)s2)cc1S(=O)(=O)N1CCOCC1
9%	Cc1cc(C)n2nc(SCC(=O)Nc3c(C)nn(-c4ccccc4)c3C)nc2n1
-12%	COc1ccc(NC(=O)C2CC(=O)N=C(N)S2)cc1 (centres undefined)
-3%	COc1ccc(-n2c(=S)[nH]c3cc(C(=O)Nc4cc(OC)c(OC)c(OC)c4)ccc3c2=O)c(OC)c1
8%	COc1ccc(/C=N/NC(=O)c2cccc(Br)c2)cc1COc1ccccn1
2%	CCC1(C)CC(=O)N(c2ccc(C(=O)O)c(O)c2)C1=O (centres undefined)
16%	Cc1cc(-c2c(C(=O)N3CCOCC3)c(C)nn2-c2cccc(C(F)(F)F)c2)no1
8%	COc1cc(NC(=O)CN2CCN(c3ccccc3)CC2)c(C)cc1[N+](=O)[O-]
-14%	CCc1ccc(OCC(=O)O/N=C(\N)c2ccncc2)cc1
6%	NS(=O)(=O)c1ccc(NC(=O)COC(=O)CCc2c[nH]c3ccccc23)cc1
?	NC(=S)N/N=C/c1ncc(C(F)(F)F)cc1Cl
-1%	Cc1cc(/C=C2\C(=N)N3N=C(C(C)C)SC3=NC2=O)c(C)n1Cc1ccccc1
3%	O=C(CC(c1cccs1)N1Cc2ccccc2C1=O)Nc1cccc(F)c1 (centres undefined)
-15%	O=C(NCCc1ccc(Cl)cc1)c1ccc(NC2=NC3CS(=O)(=O)CC3S2)cc1 (centres undefined)
17%	O=C(CSc1nncs1)NC1CCCc2ccccc21 (centres undefined)
-6%	Cc1cc2cc(C)c(NCCNC(=O)c3cccs3)nc2cc1C
-4%	COc1ccc(-c2oc3ccc(N4CCOCC4)cc3c2/C=C/c2ccc(OC)c(OC)c2)cc1
-9%	CCOC(=O)C1(Cc2ccc(Cl)cc2)CCN(Cc2ccon2)CC1
-2%	O=C(CNC(=O)c1cccs1)OCc1c(F)cccc1Cl
14%	COc1ccc(S(=O)(=O)N(C)CC(=O)Nc2cccc(C(C)=O)c2)cc1
7%	O=C(O)CCNS(=O)(=O)c1ccc2ccccc2c1
-8%	OC(c1ccccc1)c1nc2ccccc2s1 (centres undefined)
7%	Cc1ccc(CNC(=O)c2cc(-c3ccc(C)cc3)nc3n[nH]c(-c4ccc(F)cc4)c23)cc1
9%	Cc1ccc(S(=O)(=O)N2CCCCC2)cc1
-4%	CC(C)C[C@H]1CNC(=S)N1CC1CCN(CCCC2CCCC2)CC1
-10%	COC(=O)C1C(C(=O)OC)C1(c1ccccc1)c1ccccc1 (centres undefined)

In a second layout: results already given
O=C(CSc1nncs1)NC1CCCc2ccccc21 (centres undefined)
  VDR inh: 17%
Cc1cc2cc(C)c(NCCNC(=O)c3cccs3)nc2cc1C
  VDR inh: -6%
COc1ccc(-c2oc3ccc(N4CCOCC4)cc3c2/C=C/c2ccc(OC)c(OC)c2)cc1
  VDR inh: -4%

Some of the compounds tested; the hit share may differ from the screen's.
